Compound activity: PubChem BioAssay, National Center for Advancing Translational Sciences (NCATS)
Six1-Eya2 blk: inhibitors of human Six1/Eya2 interaction; activity change, % (no concentration beside the values); Q15475+O00167; actives 0.56% (n = 360,000); AlphaScreen GST-Six1/His-Eya2 binding, biochemical; stronger effect = lower value; control for the full effect not named in the record; AID 651725; in the data active = activity change below about -65%; inconclusive = about -30% to -65%; inactive = above about -30%; note: % is set by controls: 0 for no effect and ±100 for the full control effect; compound concentration not given in the record
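AlphaScreen luminescence read after one hour at 37 °C in darkness. Pin-transferred compounds met GST-Six1 and His-Eya2 protein (5X stock 250 nM/500 nM) plus glutathione donor and Ni-chelate acceptor beads (5X, 50 ug/mL).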
TRPML1 agonist: activates the human TRPML1 channel. TRPML1-expressing cells, Ca2+ dye fluorescence, FDSS; host cell line not named in the record; reference of the full effect not given here. activation, % (test concentration not listed). actives 0.12% (n = 410,000). AID 624414; in the data active = activation above about 50%; inconclusive = about 30% to 50%; inactive = below about 30%; note: 0% is about no effect; the text of the record puts the active cut at 80%
Target sequence (Q9GZU1 whole entry, looked up): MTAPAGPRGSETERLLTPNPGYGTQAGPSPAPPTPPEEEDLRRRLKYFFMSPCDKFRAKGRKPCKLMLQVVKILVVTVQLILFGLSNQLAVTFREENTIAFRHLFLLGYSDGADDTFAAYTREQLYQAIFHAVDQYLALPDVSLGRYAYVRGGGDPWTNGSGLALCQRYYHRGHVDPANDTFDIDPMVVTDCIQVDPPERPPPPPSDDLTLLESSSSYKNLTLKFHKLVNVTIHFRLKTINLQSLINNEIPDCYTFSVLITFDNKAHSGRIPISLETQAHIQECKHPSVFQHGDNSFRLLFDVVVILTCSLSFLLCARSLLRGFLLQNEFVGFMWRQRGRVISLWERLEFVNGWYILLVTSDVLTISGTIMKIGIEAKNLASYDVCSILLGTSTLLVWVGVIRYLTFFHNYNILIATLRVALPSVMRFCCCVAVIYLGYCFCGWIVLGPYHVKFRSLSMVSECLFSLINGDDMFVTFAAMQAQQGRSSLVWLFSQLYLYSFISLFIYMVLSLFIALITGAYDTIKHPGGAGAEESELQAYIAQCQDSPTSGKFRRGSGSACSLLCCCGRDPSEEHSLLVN
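Cells: TRPML1-DL, 1X Tet inducer, ~16 h at 37 degrees C/5% CO2. Dye: ABD Ca8 no-wash + quencher, 45-90 min RT. Read: 10 s baseline, compound add, 110 s agonist phase; 54-4 EC80 (4uM final), 110 s antagonist phase.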
CtBP-E1A blk: blocks the CtBP interaction with E1A. AlphaScreen GST-E1A/His-CtBP binding, 1536-well; stronger effect = lower value; control for the full effect not named in the record. actives 0.49% (n = 340,000). activity change, % (no concentration beside the values); in the data active means activity change below about -65%; inconclusive means about -30% to -65%; inactive means above about -30%; note: % is set by controls: 0 for no effect and ±100 for the full control effect; compound concentration not given in the record
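AlphaScreen with 125 nM GST-E1A and 125 nM His-CtBP (5X stocks) in Tris pH 8.0, 300 mM NaCl, BSA, Tween 20, TCEP. Compounds preincubated 2 h at 37 deg C, then glutathione donor/nickel acceptor beads added for 1 h at 37 deg C in dark.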
D2 ag: human D2 receptor agonism in beta-arrestin assay. activation, % (test concentration not listed). P14416. DiscoveRx PathHunter D2 beta-arrestin, luminescence, 90 min; 100% = 57 uM dopamine signal. actives 0.084% (n = 360,000); in the data active = activation above about 40%; inconclusive = about 15% to 40%; inactive = below about 15%; note: compound concentration not given in the record; the text of the record calls up to 30% inactive
Target sequence (P14416 whole entry, looked up): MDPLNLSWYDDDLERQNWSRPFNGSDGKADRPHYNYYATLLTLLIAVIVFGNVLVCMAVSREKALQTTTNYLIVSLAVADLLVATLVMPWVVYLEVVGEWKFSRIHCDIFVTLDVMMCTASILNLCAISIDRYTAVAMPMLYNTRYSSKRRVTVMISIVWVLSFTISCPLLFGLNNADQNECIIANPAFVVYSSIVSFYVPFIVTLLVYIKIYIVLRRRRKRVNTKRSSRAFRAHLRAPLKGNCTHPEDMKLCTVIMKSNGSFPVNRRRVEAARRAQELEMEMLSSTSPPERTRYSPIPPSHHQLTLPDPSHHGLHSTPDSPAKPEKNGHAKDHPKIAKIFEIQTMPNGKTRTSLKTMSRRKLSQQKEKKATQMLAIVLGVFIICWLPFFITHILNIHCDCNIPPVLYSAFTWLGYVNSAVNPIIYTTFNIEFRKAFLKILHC
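Agonist mode: compounds alone added to overnight-plated D2 PathHunter cells for 90 min at 37 C, with 57 uM final dopamine (EC100) defining full response. Beta-arrestin recruitment detected by chemiluminescent reagent, read after 1 h at ambient temperature.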
D2 PAM: positive allosteric modulators of human D2 dopamine receptor; DiscoveRx D2 beta-arrestin cells, luminescence, 90 min; 100% = 57 uM dopamine signal; actives 0.23% (n = 360,000); potentiation, % (test concentration not listed); active = potentiation of 50% or more; inconclusive = 30% to 50%; inactive = 30% or less;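 note: compound concentration not given in the record; tested on top of an EC20 dose of dopamine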
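D2 cells co-treated with compound plus 50 nM dopamine (EC20) for 90 min at 37 deg C to detect potentiation. Beta-arrestin recruitment was read as enzyme-fragment luminescence after 1 h at ambient temperature. Full response was set by 57 uM dopamine.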
PINK1 modulator: changes PINK1 expression; actives 0.2% (n = 410,000); Potency, µM (titrated, usually from 76.6 µM), for the others: top-dose activation (PINK1 increase), hits mostly activators; PINK1 immunofluorescence, high-content cytometry, 24 h; active = well fitted activation curve with a large enough effect; inconclusive = small, poorly fitted or top-dose-only effect; inactive = flat fitted curve, though single readings scatter; cell line not stated here;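 note: potency is the fitted concentration of half-maximal effect; % of control where 0% means no effect; nearly all actives have a fitted effect of over 65% in size; a mitochondrial uncoupler was the plate control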
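Decision-based qHTS: stable cells, 24 h exposure to five compound concentrations, CCCP as control. Fixed cells stained for PINK1 plus nuclear, mitochondrial and cell markers, cytometer read.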
Starred values were filed as active, the others as inactive; u = inconclusive; x = no result given; & = joins results of further samples; [ ] = another dose, or the depositor's remark.

SMILES	Six1-Eya2 blk	TRPML1 agonist	CtBP-E1A blk	D2 ag	D2 PAM	PINK1 modulator
O=C(NCCc1ccccc1)[C@@H]1CC=C[C@@H]2CCN(C3CCCCC3)C(=O)[C@@H]21	0	1.8&-0.1	1	-7.3	-8	0.2%
CC1(C)CC(=O)C(C=Nc2ccc(Cl)cn2)=C(O)C1	2	-0.1	2	1.7	-13	-0.3%
NC(=NC(=O)c1ccccc1)N1N=CCC1c1ccccc1 (stereo not given)	6	2.2	8	0.8	-6	0.3%
Cc1ccc(NC(=O)CSc2nnc(-c3ccncc3)n2C)cc1S(=O)(=O)N1CCOCC1	9	0.6	u	2.6	5	-0.5%
Cc1cccc(Nc2cc(C)nc3ccccc23)c1	-4	0.8	0	-4.3	-10	0.8%
COc1ccc(OCc2cc(C(=O)N(C)Cc3cc(C)no3)no2)c(Cl)c1	3	1.4	x	2.8	-9	1.1%
COc1cc(C(=O)OCC(=O)N2CCN(C(C)=O)CC2)ccc1OCC(C)C	-10	-0.3	29	-2.5	4	-1.6%
CCCCN1C(=O)c2ccc(C(=O)Nc3cccnc3)cc2C1=O	-4	1.1	9	-2.4	-8	0.2%[38.3 µM]
O=C1NC(c2ccccc2)=C(c2nc3ccccc3s2)C(c2ccc(F)cc2)N1 (stereo not given)	-15	1.0	-16	-2.1	-18	-4.3%[38.3 µM]
COc1ccc(S(=O)(=O)N(C)C2CCN(C)CC2)cc1	6	0.3	7	-2.4	-11	-0.5%
CSCCC(NC(=O)C12CC3CC(CC(C3)C1)C2)C(=O)OCC(=O)c1ccc(Cl)cc1 (stereo not given)	8	-0.3	4	-1.1	7	1.6%
Cc1ccc(S(=O)(=O)N(C)CCCC(=O)N2CCOCC2)cc1	-2	-0.7	0	-1.0	-2	0.0%
O=C(O)c1ccc2c(c1)N(Cc1ccc(F)cc1)C(=O)c1ccccc1S2	0	0.8	7	-2.2	-4	1.0%
Cc1ccc(S(=O)(=O)NCC2CCCO2)cc1 (stereo not given)	14	-0.4	-1	-6.7	-7	1.3%
N/C(=N\N=Cc1ccc2c(c1)OCO2)NN=Cc1ccc2c(c1)OCO2	-9	0.0	-12	5.1	-17	-0.4%
COc1cc(S(=O)(=O)NC2CCSc3ccccc32)ccc1NC(C)=O (stereo not given)	-1	1.5	1	-2.2	-5	1.5%
CC[C@]12c3[nH]c4ccc(OC)cc4c3CCN1C(=O)C(CC(=O)NCCc1ccccn1)C[C@@H]2C(=O)N1CCN(C(=O)c2ccco2)CC1 (stereo not given in full)	2	0.2	1	-4.2	x	0.2%
Cc1ccc(-c2csc(NC(=O)/C=C/c3cccs3)n2)cc1C	2	1.0	4	4.5	u	2.7%
CCN(CC)C(=O)[C@H]1C[C@H](CC(=O)NC/C=C(\C)CCC=C(C)C)C(=O)N2CCc3c([nH]c4cc(-c5ccco5)ccc34)[C@]12C	-17	0.9	-22	-1.6	-4	u
NS(=O)(=O)c1ccc(CNC(=O)/C=C/c2ccccc2)cc1	0	-0.5	6	-0.3	3	-0.3%
Cc1ccc(NC(=O)CN2C(=O)CCSc3ccc(S(=O)(=O)N4CCCC4)cc32)cc1	-2	-0.9&-1.1	4	0.2	-3	5.4%&0.9%
CCOC(=O)c1sc2nc(CC(=O)OC)nc(NCC(=O)OC)c2c1C	-4	-0.4	0	-2.9	-19	4.4%[38.3 µM]
Cc1nn(-c2ccccc2)c(C)c1/C=N/NC(=O)c1cc(-c2cccs2)[nH]n1	u	2.8	u	4.2	5	-0.8%
CO[C@@]1(NC(=O)Cc2cccs2)C(=O)N2C(C(=O)O)=C(COC(N)=O)CS[C@@H]21	2	0.1	-22	-3.4	-8	1.2%
COc1ccc(CN(C)CC(=O)NC(C)c2ccccc2)cc1OC (stereo not given)	-4	0.0	-4	-5.0	-6	2.2%

Exported in CSV form: entries from further up
Compound,Six1-Eya2 blk,TRPML1 agonist,CtBP-E1A blk,D2 ag,D2 PAM,PINK1 modulator
Cc1ccc(-c2csc(NC(=O)/C=C/c3cccs3)n2)cc1C,2,1.0,4,4.5,u,2.7%
Cc1ccc(S(=O)(=O)NCC2CCCO2)cc1 (stereo not given),14,-0.4,-1,-6.7,-7,1.3%
COc1ccc(CN(C)CC(=O)NC(C)c2ccccc2)cc1OC (stereo not given),-4,0.0,-4,-5.0,-6,2.2%

(next part)
SMILES	Six1-Eya2 blk	TRPML1 agonist	CtBP-E1A blk	D2 ag	D2 PAM	PINK1 modulator
CC(C)c1cc(C(=O)N(C)C2CCCN(Cc3ccccc3F)C2)n(C)n1 (stereo not given)	-7	-0.7	-6	-0.1	-16	1.3%
Cn1cc(C(=O)OCC2CCN(CCNS(C)(=O)=O)CC2)c2ccccc21	-2	0.2	3	-6.9	-3	1.4%
CCNC(=O)C1(C)CCCN(Cc2ccc(-c3ccccn3)cc2)C1 (stereo not given)	24	0.1	-9	-3.1	-9	0.6%
CC(=O)NC(=S)Nc1sc2c(c1C(N)=O)CCC(C)C2 (stereo not given)	-1	-0.4	0	-8.1	-8	-0.1%
COc1cc(C2C(C(=O)c3ccc(C)o3)=C(O)C(=O)N2CCc2ccccc2)ccc1O (stereo not given)	-17	0.3	0	-3.9	-7	-0.8%
Brc1ccc2c(c1)C(c1cccnc1)=NNC(c1cccs1)=N2	-6	1.5	-17	2.4	-1	1.0%
Cn1c(=O)c2c(nc(SCCN3CCOCC3)n2Cc2ccccc2Cl)n(C)c1=O	8	-0.5	7	-3.7	-1	0.0%
COc1ccc(/C=N/NC(=O)c2cccc(NC(=O)c3ccccc3Cl)c2)c(OC)c1	-2	4.0	3	3.6	1	2.2%
Cc1csc2nc(O)c(C(=O)NCCC3=CCCCC3)c(=O)n12	3	2.4	-4	-0.5	0	-3.4%
CC1(c2ccccc2Cl)NC(=O)N(CC(=O)N2CCN(S(=O)(=O)c3ccccc3)CC2)C1=O (stereo not given)	0	-0.6	5	-3.1	7	5.3%
O=C(CCN1C(=O)C2C3C=CC(C3)C2C1=O)NCCN1CCCc2ccccc21 (stereo not given)	-1	0.6	8	2.7	-1	0.0%
Cc1cc(C)cc(OCC(O)CN2C(=O)NC(C)(C)C2=O)c1 (stereo not given)	2	-0.1	2	-2.3	-7	1.5%
Cc1ccc(S(=O)(=O)c2c(C)nn(C(C)(C)C)c2OC(=O)C(C)(C)C)cc1	-3	0.1	-6	-0.3	-19	-3.1%
CCCCN(CCCNC(=O)C1CCCN(S(=O)(=O)CC)C1)Cc1ccccc1 (stereo not given)	-5	-1.2	4	-3.5	-13	0.5%
Cc1ccc(/C=C/C(=O)O)cc1S(=O)(=O)Nc1ccc(C(=O)O)cc1	-2	x	6	-0.1	-6	0.7%
Cc1ccc(/C=C/c2nc3sc(C(=O)O)c(C)c3c(=O)[nH]2)cc1[N+](=O)[O-]	0	0.5	1	u	2	3.7%
COc1ccc(S(=O)(=O)N(C)c2ccc(C(=O)N3CCCCC3)cc2)cc1	2	0.2	-1	0.3	2	-2.0%
C[C@H](CO)N1C[C@H](C)[C@H](CN(C)C(=O)Nc2ccc3c(c2)OCO3)Oc2ncc(Br)cc2C1=O	4	2.1	5	-2.5	4	-0.4%
O=C(Nc1ccc(F)cc1)N1CCN2C(=O)c3ccccc3C12c1ccccc1 (stereo not given)	-1	1.0	-1	-3.2	-2	-3.5%
CCN(CC(=O)NCc1cccs1)C(=O)c1ccc(-c2ccccc2F)o1	-2	0.5	-1	-0.3	-13	-0.4%
Cc1ccc(NC(=O)COC(=O)CCC2CCCC2)cc1S(=O)(=O)N1CCOCC1	7	2.5	1	-2.1	-1	-1.9%
O=C(O)Cc1ccc(NC(=O)c2ccc3c(c2)C(=O)N(Cc2ccco2)C3=O)cc1	-18	0.2	-6	-2.6	-22	1.1%
CCOc1ccc(NC(=O)C(NC(=O)C2CCC(C)CC2)C(C)C)cc1 (stereo not given)	9	0.6&-0.1	16	0.5	-11	2.9%&0.9%
Cn1cccc1CC(=O)NNC(=O)Nc1cccc(Cl)c1	-1	0.5	x	-2.7	-5	-1.8%
COc1cccc(C2N=C(c3ccccc3C)NO2)c1OC (stereo not given)	5	0.2	0	2.4	-2	1.6%

Later entries:
SMILES	Six1-Eya2 blk	TRPML1 agonist	CtBP-E1A blk	D2 ag	D2 PAM	PINK1 modulator
COc1cccc(/C=C2/SC(=S)N(CC(=O)NNC(=O)c3ccccc3OC)C2=O)c1	-8	-0.2	-17	-1.5	-9	0.1%
COCCNC(=O)C1CCCN(C(=O)c2nc(C)oc2C)CC1 (stereo not given)	5	0.0	7	8.1	0	3.2%
Clc1cccc(Cl)c1Cn1c(-c2cccnc2Cl)nc2ccccc21	-2	0.0	-3	0.9	6	1.7%[38.3 µM]
CCCCN(C(=O)C1CCCC1)c1c(N)n(CCC)c(=O)[nH]c1=O	-2	0.1	-17	-6.9	2	3.9%
Cc1ccc([C@H]2N[C@]3(CCCN(CC4CCCCC4)C3=O)[C@H]3C(=O)N(C)C(=O)[C@@H]23)cc1	-10	-0.1	-4	-9.3	0	0.4%
COc1cc(CNn2c(C)n[nH]c2=S)cc(Br)c1OCC(=O)NC(C)(C)C	0	0.8	-1	-2.8	-8	0.8%
CC(C)Cn1cc(C(=O)NCC2CCCO2)c2c3ccccc3n(C)c2c1=O (stereo not given)	-1	2.5	-1	2.5	0	4.5%[38.3 µM]
O=C(NCc1cccc(Cl)c1)c1ccc(S(=O)(=O)N2CCCCC2)cc1	4	-0.9	5	2.8	2	0.0%
O=[N+]([O-])c1cccc2cn[nH]c12	10	0.1	-5	-0.8	-8	1.5%
O=[N+]([O-])c1ccc(NN=Cc2ccco2)nc1	-4	-0.1	-4	-3.5	-8	3.0%
Cc1ccc(S(=O)(=O)N2CCOCC2)cc1C(=O)NCc1ccccc1CN1CCCC1	-2	0.5	1	-0.2	-4	-1.0%
N#CC(C(N)=O)=C1CCCCC1	3	0.4	8	-1.2	-9	-0.3%
COc1cc(-c2cn(S(=O)(=O)c3cccc4nsnc34)nc2N)cc(OC)c1OC	-16	3.5	-12	-1.7	-17	4.1%[38.3 µM]
CC[C@]12c3[nH]c4ccc(OC)cc4c3CCN1C(=O)C(CC(=O)NCCN1CCOCC1)C[C@@H]2C(=O)N1CCN(C(=O)c2ccco2)CC1 (stereo not given in full)	0	-0.2	0	-3.4	-13	-0.5%
C/C(=N\NC(=O)c1cccc(F)c1)c1cccc(NC(=O)c2ccc(F)cc2)c1	8	2.7	5	2.0	-1	7.4%
CCOC(=O)c1c(NC(=O)C2C3C=CC(C3)C2C(=O)O)sc2c1CCC(CC)C2 (stereo not given)	-12	0.3	5	-0.9	16	-0.9%
COc1ccc(NC(=O)C2CCCN(S(=O)(=O)c3ccc4c(c3)CC(C)N4C(C)=O)C2)cc1 (stereo not given)	-9	-1.1	-19	-2.1	-6	-0.1%
CCc1nnc(NC(=O)C2CCC2)s1	-3	0.4	-5	-3.3	-2	-0.6%
Cn1ncc(Br)c1C(=O)NC1CCCC1	1	-0.4	2	-0.5	-2	-0.4%
CCCNC(=O)c1ccc(CN2CCOCC2)cc1	11	3.4	9	-4.7	-4	-1.2%
